fixLJ activator: increases Burkholderia fixLJ two-component signaling. 29,000 compounds, 0.3% hits. z-score (no concentration beside the values). B. multivorans fixK-promoter GFP reporter, 18 h; stronger effect = higher value. AID 1918990;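 active = replicate mean overnight rise in green fluorescent reporter signal, 3 or more SD over negative controls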;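 also: score is relative to vehicle wells of the plate; 300 nL library stock went into each well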
* hit, by the source's call; & = joins results of further samples. Only part of the results is shown; count on the stated rates, not on these rows.

SMILES	fixLJ activator
CCOc1ccc(NC(=O)C(NS(=O)(=O)c2ccc3c(c2)CCN3C(C)=O)C(C)C)cc1 (stereo unspecified)	0.55
COCC(NC(=O)c1nc2ccccc2c(=O)[nH]1)c1ccnn1C (stereo unspecified)	0.8
COc1cccc(C(=O)N2CCC(C(=O)Nc3cccc(-c4cnc[nH]4)c3)CC2)c1	-1.8
CCOc1cc(C2c3c(oc4cc(C)cc(C)c4c3=O)C(=O)N2CCO)ccc1O (stereo unspecified)	-0.62
CCOc1ccc(CNC(=O)C2CCN(c3nnc(-n4c(C)ccc4C)s3)CC2)cc1	-0.97
Cc1ccc2c(CC(=O)Nc3ccc(S(=O)(=O)Nc4nc(C)cc(C)n4)cc3)coc2c1	-0.84
Cc1ccc(S(=O)(=O)N2CCCC(C(=O)CCc3ccccc3)C2)s1 (stereo unspecified)	-1.1
Cc1[nH]c2ccc(F)cc2c1CC(=O)NC(C)c1cnc[nH]1 (stereo unspecified)	2.1
Cc1noc(C)c1CN(C)Cc1ccc(C2CCCCO2)o1 (stereo unspecified)	-1.8
CCN(CC)C(=O)Cn1c(=O)n(Cc2ccc(C(=O)NCc3ccc(C)cc3)cc2)c(=O)c2ccccc21	-1.4
Fc1ccc(-c2nnn3c2nc(NCc2ccccc2)c2ccccc23)cc1	-0.85
Cc1ccc(Cl)cc1N1CCN(C(=O)c2ccc3c(c2)N(Cc2ccccc2F)C(=O)c2ccccc2S3(=O)=O)CC1	-0.37
CC1CCc2sc(C(=O)NCc3nc(N)nc(N(C)C)n3)cc2C1 (stereo unspecified)	-0.14
COc1ccccc1C(=O)Nc1cc(-c2ccc(C)cc2)no1	-1.2
CCOC(=O)c1ccc(N2C(=O)c3n[nH]c(-c4ccco4)c3C2c2cccc(F)c2)cc1 (stereo unspecified)	1.4
CCOC(=O)CCc1c(C)nc2c(-c3ccccc3)c(C)[nH]n2c1=O	-0.1
CC1Cc2cc(CNC(=O)N3CCC(OCc4cccnc4)CC3)ccc2O1 (stereo unspecified)	-0.91
CCOc1ccc(C(=O)c2cn(CC(=O)Nc3cccc(OC)c3)c3cc4c(cc3c2=O)OCCO4)cc1	2.9
Cc1cc(Nc2ccc(F)cc2)n2c(nc3ccccc32)c1C#N	0.04
Cc1ccc(C(=O)c2oc3ccccc3c2NC(=O)c2cc(=O)c3cc(C)ccc3o2)cc1	-0.99
COC(=O)c1ccccc1NC(=O)Cn1c(CCC(=O)O)ccc1-c1cccs1	-1.8
Nc1nc(CCCNCc2cc(C#CCO)cs2)cs1	-0.85
Cc1ccc2c(c1)N(CCCC(=O)NCc1cccc(F)c1)C(=O)CO2	0.85
COc1ccccc1CNC(=O)CSc1nc(-c2ccc(OC)c(OC)c2)cc(C(F)(F)F)n1	-2.2
CC1CCc2c(sc3nnn(CC(=O)Nc4c(C(C)C)cccc4C(C)C)c(=O)c23)C1 (stereo unspecified)	-1.8
CC(=O)c1nn(-c2ccc(OC(F)(F)F)cc2)nc1Nc1ccc(Cl)cc1	-1.6
Cc1nc(C(C)C)cc(N2CCC3(CCC(=O)N(Cc4ccncc4)C3)CC2)n1	-0.27
Cc1ccc(CCNC(=O)c2ccc(CNS(=O)(=O)c3ccccc3)cc2)cc1	-0.79
O=C(NCCc1nc(-c2cccnc2)n[nH]1)c1ccc2cccc(Cl)c2n1	-0.12
CCOc1ccccc1C1CC(=O)Nc2c1c(=O)n(C)c1ncnn21 (stereo unspecified)	0.33
Cc1ccc(C)c(CN2C(=O)c3ccccc3S(=O)c3ccc(C(=O)NCc4ccco4)cc32)c1 (stereo unspecified)	-0.24
CCCCSCCCNC(=O)c1cn(CC)c2ccc(S(=O)(=O)N3CCCCCC3)cc2c1=O	-0.49
CSc1ccc(C2c3c(oc4ccccc4c3=O)C(=O)N2CCCN2CCOCC2)cc1 (stereo unspecified)	-1.1
Cc1ncnc(N2CCN(C)C3(CCC(=O)N(CC4CC4)CC3)C2)c1C (stereo unspecified)	0.3
COCCNC(=O)CCCn1c(SCC(=O)Nc2cccc(C)c2)nc2c(sc3ccccc32)c1=O	0.82
COc1ccc(-c2cc(=O)oc3c4c(ccc23)OCN(Cc2ccccc2)C4)cc1	1.1
CCOc1cccc(CNc2ccc(O)cc2)c1OCc1ccccc1Cl	1.1
COc1ccc(/C=C(\C#N)c2nc(-c3cc4ccccc4oc3=O)cs2)cc1OC	0.19
Cn1c(=O)oc2cc(S(=O)(=O)NCCC(=O)NCc3ccc(F)cc3)ccc21	0.2
CCc1c(C)sc(NC(=O)c2cc3nc(-c4ccc(OC)cc4)cc(C(F)(F)F)n3n2)c1C(=O)OC	-0.47
CC(Cc1cnccn1)NC(=O)C1CCN(C(=O)C2CC2)CC1 (stereo unspecified)	-3
Cc1ccc(S(=O)(=O)c2cn(CC(=O)Nc3ccc4c(c3)OCO4)c3ccc(C)cc3c2=O)cc1	-0.65
COc1ccc(-n2ccnc2CN2CC3NCCOC3C2)cc1 (stereo unspecified)	0.31
CCc1ccc(-c2nc(CSCC(=O)NCc3ccc(C)cc3)c(C)o2)cc1	-1.3
COc1cccc(-c2nc(CS(=O)(=O)CC(=O)NCCc3ccc(OC)cc3OC)c(C)o2)c1	-1.6
Cc1ccc(F)cc1S(=O)(=O)N1CCCn2nc(C(O)CO)cc2C1 (stereo unspecified)	-2.3
O=C(NCCN1CCCCC1)c1ccc(Cn2c(SCc3ccc(F)cc3)nc3cccnc32)cc1	-1.6
CCCCOC(=O)c1ccc(NC(=O)Cc2coc3c(C)c(C)ccc23)cc1	-1.1
CC(C)(C)C1CCc2c(sc(NC(=O)c3cc4ccccc4c(=O)o3)c2C(N)=O)C1 (stereo unspecified)	-1.1
CC(NC(=O)CN1C(=O)COc2ccc(Cl)cc21)c1ccccc1 (stereo unspecified)	-0.55
CCc1ncc(C(=O)N2CCC3(CCC(=O)N(C)C3)CC2)cn1	0.78
C=C(C)CSc1nc2sc3c(c2c(=O)n1-c1ccccc1)CC(C(C)C)OC3 (stereo unspecified)	-1.6
CCn1cc(C(=O)N(C)c2cc(C)ccc2C)c2cc(OC)c(OC)cc2c1=O	0.16
CCCOc1ccc(NC(=O)C(=O)NCCCN2CCOCC2)cc1	-1.1
CNc1nc(NCCCc2nc3ccc(Cl)cc3[nH]2)ncc1F	-1.3
COc1ccccc1NC(=O)CCCOc1cc(=O)n(C)c2ccccc12	0.54
CCOc1ccc(NC(=O)Cn2nnc(C(=O)Nc3ccc(OCC)cc3)c2N)cc1	-0.75
COc1ccc(C(=O)Nc2ccc3oc(-c4cccnc4)nc3c2)cc1	-0.56
COC(=O)c1ccc(C(=O)Nc2ccc(-c3nc4cc(NC(=O)c5ccc(C(=O)OC)cc5)ccc4o3)cc2)cc1	-1
CCn1c(=N)c(C(=O)NCc2ccccc2)cc2c(=O)n3cc(C)ccc3nc21	-1.2

(further entries)
SMILES	fixLJ activator
COc1ccc(Cn2c(CCC(=O)Nc3ccc(C)cc3C)nc3cccnc32)cc1	-0.35
O=C(CCc1cc(=O)[nH]o1)N1CCCCC1CCn1cccn1 (stereo unspecified)	0.43
O=C(Cn1ncc2c3ccccc3n(Cc3cccc(Cl)c3)c2c1=O)N1CCCCCC1	8.7*
COc1cc(OC)c(NC(=O)c2c(C)oc3ncn(C)c(=O)c23)cc1Cl	-1.9
Cn1c(=O)n(C)c2cc(N3CCCCC3)c(NC(=O)Nc3ccc(Br)cc3)cc21	-1.2
CC1=C(C(=O)N2CCN(c3ccc(Cl)cc3)CC2)C2(CCC(C)CC2)OC1=O (stereo unspecified)	-1.4
CCC1=C(C)CN(C(=O)NCCc2ccc(S(=O)(=O)NC(=O)NC3CCC(C)CC3)cc2)C1=O (stereo unspecified)	-1.1
CCN(C(=O)NCc1noc(C)n1)C1CCS(=O)(=O)C1 (stereo unspecified)	1.1
O=C(NCc1cccs1)c1ccc(CSc2nc3ccncc3n2Cc2ccccc2F)cc1	-1.7
COc1ccc2c(C)c(CC(=O)NCCc3ccc(Cl)cc3)c(=O)oc2c1C	1.6
CCCN(CCC)CCNC(=O)CS(=O)Cc1nc(-c2ccc(OC)c(OC)c2)oc1C (stereo unspecified)	-1.6
Cc1ccc2c(CCNC(=O)c3cn[nH]c3-n3cnnn3)c(C)[nH]c2c1C	-1.9

Reformatted: 13 of the compounds above
molecule,fixLJ activator
COc1ccc(C(=O)Nc2ccc3oc(-c4cccnc4)nc3c2)cc1,-0.56
COC(=O)c1ccc(C(=O)Nc2ccc(-c3nc4cc(NC(=O)c5ccc(C(=O)OC)cc5)ccc4o3)cc2)cc1,-1
CCn1c(=N)c(C(=O)NCc2ccccc2)cc2c(=O)n3cc(C)ccc3nc21,-1.2
COc1ccc(Cn2c(CCC(=O)Nc3ccc(C)cc3C)nc3cccnc32)cc1,-0.35
O=C(CCc1cc(=O)[nH]o1)N1CCCCC1CCn1cccn1 (stereo unspecified),0.43
O=C(Cn1ncc2c3ccccc3n(Cc3cccc(Cl)c3)c2c1=O)N1CCCCCC1,8.7*
COc1cc(OC)c(NC(=O)c2c(C)oc3ncn(C)c(=O)c23)cc1Cl,-1.9
Cn1c(=O)n(C)c2cc(N3CCCCC3)c(NC(=O)Nc3ccc(Br)cc3)cc21,-1.2
CC1=C(C(=O)N2CCN(c3ccc(Cl)cc3)CC2)C2(CCC(C)CC2)OC1=O (stereo unspecified),-1.4
CCC1=C(C)CN(C(=O)NCCc2ccc(S(=O)(=O)NC(=O)NC3CCC(C)CC3)cc2)C1=O (stereo unspecified),-1.1
CCN(C(=O)NCc1noc(C)n1)C1CCS(=O)(=O)C1 (stereo unspecified),1.1
O=C(NCc1cccs1)c1ccc(CSc2nc3ccncc3n2Cc2ccccc2F)cc1,-1.7
COc1ccc2c(C)c(CC(=O)NCCc3ccc(Cl)cc3)c(=O)oc2c1C,1.6

Next compounds follow:
SMILES	fixLJ activator
CCc1ccccc1NC(=O)[C@@H](c1ccccc1)N1Cc2ccccc2C1=O	-1.1
CC(C)n1ccnc1C1CCCN(C(=O)c2cccc(-c3cn[nH]c3)c2)C1 (stereo unspecified)	-0.05
COc1ccccc1-c1nnc(C2CCN(C(=O)c3ccc(Cl)cc3)CC2)o1	-0.97
COC(=O)c1cc2sccc2n1CC(=O)Nc1ccc(C)cc1C	-1.3
CC(NC(=O)N(C)CC1(CO)CCC1)c1nc(-c2ccc(Cl)cc2)no1 (stereo unspecified)	-1.4
Cc1ccccc1C1C(C(=O)N(C)Cc2cnn(C)c2)OCC(=O)N1C (stereo unspecified)	-0.6
CCOC(=O)CC(NC(=O)c1cc2cc(Cl)ccc2oc1=O)c1ccc(C)cc1 (stereo unspecified)	-0.56
Cc1cccn2c(=O)c(C(=O)NCCCN3CCCCC3C)c(O)nc12 (stereo unspecified)	-0.11
COCCn1c(-c2ccccc2)c(C)n2c3c(=O)n(C)c(=O)n(C)c3nc12	-0.18
COc1ccc(N2CCN(C(=O)CN(C)S(=O)(=O)c3cccs3)CC2)cc1	-1.3
O=C(Cn1ccc(C2CCCNC2)n1)N1CCCCCCC1 (stereo unspecified)	-0.32
Cc1ccc(S(=O)(=O)c2cn(Cc3ccccc3F)c3cc4c(cc3c2=O)OCO4)cc1	-2.8
CCCc1nc2sc3c(N4CCCCC4)ncnc3c2c2c1CCCC2	-0.9
Cc1ccc(N(CC(=O)Nc2cc(C)ccc2C)S(=O)(=O)c2c(C)noc2C)cc1	-1.5
Cc1cc(C)c(S(=O)(=O)Nc2cc(Cl)c3oc4c(c3c2)C(=O)CCC4)cc1C	-1.1
CN(C)CCNC(=O)c1ccc2c(c1)N(Cc1c(F)cccc1Cl)C(=O)c1ccccc1S2	-2.6
CN(Cc1n[nH]c2c1CCC2)C(=O)COc1cccc(-n2cnnn2)c1	-0.69
CN(C)S(=O)(=O)N1CCC(Oc2ccc(C(=O)NCC3CC3)cc2)CC1	-1
COc1cc(OC)cc(C(=O)Nc2ccc3c(c2)OCCO3)c1	-2.5
Cc1ccc(Cn2c(SCc3ccc(C(=O)N4CCCCCC4)cc3)nc3ccncc32)cc1	-2.1
Cc1nc2c(-c3ccccc3)c(C)[nH]n2c(=O)c1Cc1ccc(C(C)C)cc1	-0.97
CCN(Cc1nc(COC)no1)C(=O)c1scc2c1OCCO2	-0.33
CN(Cc1cc(Br)cc(Br)c1N)C1CCCCC1	-0.78&0.46
Cc1nn(C(F)F)cc1-c1cccc(C(=O)NCCCc2c(C)n[nH]c2C)c1	-0.52
O=C(Nc1ccc(NC(=O)c2cccs2)cc1)c1cccc(Br)c1	0.65
CCCNS(=O)(=O)c1cc(-c2nnc3c4ccccc4c(C)nn23)ccc1OC	-2
CCOc1ccc(NC(=O)c2oc3ccccc3c2NC(=O)C2CCCCC2)cc1	0.6
COC(=O)c1ccc(NC(=O)C(C)Sc2nc(=O)cc(N)n2CCc2ccccc2)cc1 (stereo unspecified)	-1.4
COc1ccc(OC)c(NC(=O)CCc2c(C)nc3c(c(C)nn3C(C)(C)C)c2C)c1	-2.2
C=CCC1C=CCC(CC=C)N1S(=O)(=O)c1ccsc1C(=O)O (stereo unspecified)	-0.91
CCCCCSc1nnc2c(n1)OC(c1ccc(C)s1)N(C(C)=O)c1ccccc1-2 (stereo unspecified)	-0.84
CN(C)S(=O)(=O)N1CCC(c2nnc(CN3CCCCC3)n2C)CC1	0.77
CO/N=C(\C(=O)N[C@@H]1C(=O)N2C(C(=O)O)=C(COC(C)=O)CS[C@H]12)c1csc(N)n1	-4.2
CCOC(=O)c1cc(-c2ccc(C)cc2)n(CC(=O)Nc2cc(C)ccc2C)c1C	-0.91
COc1ccc(N2CCN(C(=O)C3CCN(Cc4nc(-c5ccc(Cl)cc5)oc4C)CC3)CC2)cc1	-0.57
O=C(Cn1c(=O)n(-c2ccccc2Cl)c(=O)c2sc3ccccc3c21)N1CCCC1	-0.48
O=C(Cc1cccs1)NCCc1nccc(-c2ccccc2)n1	-1.1
CC(C)(C)C1CCc2c(sc(NC(=O)c3ccncc3)c2C(=O)Nc2ccccc2Cl)C1 (stereo unspecified)	0.66
CCC(C(=O)O)n1ccc2cc(S(=O)(=O)N3CCCCC3)ccc21 (stereo unspecified)	0.23
CC(NC(=O)CCCc1nc(-c2cccnc2)no1)C1=CCCCC1 (stereo unspecified)	-0.75
CCOc1ccc(NC(=O)Cn2c(=O)n(-c3cccc(OC)c3)c(=O)c3c4c(sc32)CCCC4)cc1	-0.83
CCc1nn(C)c(NC(=O)NC(COC)c2ccnn2C)c1C (stereo unspecified)	-0.9

Assay outcomes deposited in PubChem BioAssay by ICCB-Longwood Screening Facility, Harvard Medical School.
